RE007 growth inh – qHTS Assay for Inhibitors of the HIV-1 protein Vpr | Potency, µM (highest dose often 92.2 µM), without a hit: at the highest dose activity change, negative = less growth | 0.21% of 360,000 active | S. pombe RE007 Vpr strain, BacTiter-Glo ATP luminescence, 24 h; control for the full effect not named in the record | AID 651644, 2012; active = well fitted falling curve with a large enough effect; inconclusive = small, poorly fitted or top-dose-only effect; inactive = no such curve, though single readings can be large or run the other way;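 further: on the % scale 0 is the no-effect control and ±100 the full control effect; nearly all actives have a fitted effect of over 50% in size; the assay follows cell death caused by Vpr and the record does not say whether a fall means rescue or toxicity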
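Fission yeast strain RE007, carrying one chromosomally integrated HIV-1 vpr copy, was seeded at OD 0.01 in PMG+AL medium with 23 nL pinned compound. After 24 h at 30 °C and 99% humidity, viability was read by BacTiter-Glo luminescence.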
2A StopGo – High Throughput Screening for Foot and Mouth Disease Virus Antivirals; human cells with a luciferase reporter of 2A StopGo recoding; control for the full effect not named in the record; Potency, µM (highest dose often 57.9 µM), for inactives: at the highest dose signal change, negative = less light; 1.2% of 410,000 active; AID 1159524, 2015; active = well fitted falling curve with a large enough effect; inconclusive = small, poorly fitted or top-dose-only effect; inactive = no such curve, though single readings can be large or run the other way; tested in HEK293T cells; further: on the % scale 0 is the no-effect control and ±100 the full control effect; nearly all actives have a fitted effect of over 45% in size; luciferase light after 4 h
Cruzain inh noDet – qHTS Assay for Promiscuous and Specific Inhibitors of Cruzain (without detergent); Cruzipain (Trypanosoma cruzi), P25779; 2.3% of 200,000 active; purified cruzain, Z-FR-AMC fluorescence, no detergent; AID 1476, 2009; Potency, µM, for the others: max response, negative = inhibition, usual class: inhibitors;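 further: plate controls were enzyme without inhibitor for no effect and buffer without enzyme for full effect; nearly all actives have a fitted effect of over 40% in size; top concentration of the series not given in the record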
Target sequence (P25779 123-467 limits assumed): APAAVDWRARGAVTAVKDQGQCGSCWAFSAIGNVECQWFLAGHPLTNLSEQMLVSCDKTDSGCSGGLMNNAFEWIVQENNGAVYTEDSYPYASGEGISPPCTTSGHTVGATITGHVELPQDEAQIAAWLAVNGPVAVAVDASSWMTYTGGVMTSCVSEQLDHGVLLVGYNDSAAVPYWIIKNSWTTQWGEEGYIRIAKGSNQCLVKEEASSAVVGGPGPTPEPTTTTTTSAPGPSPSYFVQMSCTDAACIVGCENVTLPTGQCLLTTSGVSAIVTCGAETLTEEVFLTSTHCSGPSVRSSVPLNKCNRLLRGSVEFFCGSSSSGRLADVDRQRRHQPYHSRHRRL
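Detergent-free condition (0.00005% Triton X-100) in acetate buffer pH 5.5 with DTT. 1.5 nM enzyme and compound were pre-mixed 15 min, then 2 uM Z-FR-AMC substrate added; reaction progress from fluorescence change between first and third reads (60 s).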
NS1 function inh – qHTS Assay for Inhibitors of Influenza NS1 Protein Function. 0.4% of 270,000 active. S. cerevisiae slowed by influenza A NS1, growth recovery by OD600. AID 2326, 2010. Potency, µM (doses to about 46.1 µM), inactives show top-dose activity, positive = more growth; active means well fitted rising curve with a large enough effect; inconclusive means small, poorly fitted or top-dose-only effect; inactive means no such curve, though single readings can be large or run the other way; further: nearly all actives have a fitted effect of over 50% in size
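S. cerevisiae expressing influenza A NS1, grown in glucose, washed, then diluted 1:100 into pH 6.0 -URA galactose medium with 23 nl compound. Growth recovery read as OD600; NS1-free strain serves as control.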
Cruzain inh Det – qHTS Assay for Promiscuous and Specific Inhibitors of Cruzain (with detergent); Cruzipain (Trypanosoma cruzi), P25779; purified cruzain, Z-FR-AMC fluorescence, 0.01% Triton; Potency, µM, inactives show max response, negative = inhibition, usual class: inhibitors; 0.43% of 200,000 active;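 further: plate controls were neutral wells for no effect and buffer without enzyme for full effect; nearly all actives have a fitted effect of over 40% in size; top concentration of the series not given in the record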
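Cysteine protease activity tested under reducing, mildly acidic conditions (100 mM sodium acetate pH 5.5, 5 mM DTT) plus 0.01% Triton X-100. Cruzain 1.5 nM; substrate Z-FR-AMC 2 uM; 15 min compound preincubation at room temperature.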
Marburg entry inh – qHTS for inhibitors of binding or entry into cells for Marburg Virus; Potency, µM (top dose mostly 37.8 µM), for inactives: at the highest dose activity change, negative = inhibition, hits mostly inhibitors; 1.8% of 300,000 active; Marburg virus pseudotyped entry inhibition, cell reporter; control for the full effect not named in the record; about a third of the inactives were read at about 46 µM; active = well fitted inhibition curve with a large enough effect; inconclusive = small, poorly fitted or top-dose-only effect, or effect the other way; inactive = flat fitted curve, though single readings scatter; tested in HEK293 cells; about a fifth of its hits are not listed in these tables; further: on the % scale 0 is the no-effect control and ±100 the full control effect; luciferase read-out
SARS PLpro yeast – qHTS of Yeast-based Assay for SARS-CoV PLP; S. cerevisiae expressing SARS-CoV PLpro, growth rescue; control for the full effect not named in the record; Potency, µM (top dose mostly 32.9 µM), without a hit: at the top dose activity, positive = growth rescue; 0.19% of 330,000 active; AID 485353, 2010; active means well fitted rising curve with a large enough effect; inconclusive means small, poorly fitted or top-dose-only effect; inactive means no such curve, though single readings can be large or run the other way; further: 0% is about no effect; nearly all actives have a fitted effect of over 55% in size; growth read by luminescence after 48 h
Lassa entry inh – qHTS for Inhibitors of binding or entry into cells for Lassa Virus. Lassa virus pseudotype entry inhibition, cell reporter; control for the full effect not named in the record. 1.2% of 300,000 active. Potency, µM (series often up to 37.9 µM), for the others: at the top dose activity change, negative = inhibition, usual class: inhibitors; active means well fitted inhibition curve with a large enough effect; inconclusive means small, poorly fitted or top-dose-only effect, or effect the other way; inactive means flat fitted curve, though single readings scatter; tested in HEK293 cells; further: on the % scale 0 is the no-effect control and ±100 the full control effect; nearly all actives have a fitted effect of over 50% in size; luciferase read-out
* = called active by the depositor; u = inconclusive; x = no result given; & = joins results of further samples; [ ] = dose if it differs, or a comment. Unless noted, the call rests on the fitted dose curve; in most records, active means well fitted curve in the direction sought with a large enough effect; inconclusive means small, poorly fitted or top-dose-only effect, or another doubt; inactive means no such curve, though single readings can be large; an effect the other way counts as inactive or inconclusive. Potency means the concentration at half of the fitted maximal effect. No enrichment for hits (roughly 4.5% active in at least one column).

SMILES | RE007 growth inh | 2A StopGo | Cruzain inh noDet | NS1 function inh | Cruzain inh Det | Marburg entry inh | SARS PLpro yeast | Lassa entry inh
Cc1cc(NCCN(C)C)n2nc(-c3cccs3)cc2n1 | 9.5% | 7.4% | -4.8% | -4.9% | -0.4% | -13.0% | -2.8% | 6.4%
O=C1OCC2=C1C(c1ccccc1)CC(=O)N2c1ccc(F)cc1 (centres undefined) | -17.3% | -14.1% | x | x | x | 0.1%[46.1 µM] | 1.1% | u
COc1ccc(S(=O)(=O)N2CCC(c3nc4ccccc4[nH]3)CC2)cc1 | -18.2% | -0.4% | x | -3.5% | x | -19.5%[46.1 µM] | 1.4% | -22.2%[46.1 µM]
CCc1ccccc1N1CSC2=C(C#N)C(c3ccccc3F)CC(=O)N2C1 (centres undefined) | -13.7% | u | 25.1µM* | 0.891µM* | -3.6% | 4.1% | -3.6% | x
Cc1cc(NC(=O)COC(=O)C2CCC2)no1 | -19.4% | -5.0% | x | x | x | u | 0.7% | 7.7%
COc1ccc(OC)c(Nc2nc(N)c([N+](=O)[O-])c(N3CCOCC3)n2)c1 | -2.5% | u | x | -1.9% | x | x | 0.6% | x
Cc1ccc(S(=O)(=O)O)c(C)c1N1CCCC1=O | -19.6% | -6.2% | -19.1% | -7.4% | 3.3% | -1.5% | 10.8% | 15.6%
O=C1CSC(c2cccc([N+](=O)[O-])c2)N1CCN1CCCCC1 (centres undefined) | -1.1% | 5.2% | x | -0.6% | x | x | 0.0% | x
CC(=O)OC1N=C(c2ccccc2Cl)c2cc(Br)ccc2N(C)C1=O (centres undefined) | -1.9% | -9.7% | x | -3.0% | x | x | -2.6% | x
CCCCN1C(=O)C(O)(CC(=O)c2ccccn2)c2ccccc21 (centres undefined) | 8.8% | u | x | 0.5% | x | -5.7% | -2.2% | -5.2%
N#Cc1c(CSCC(=O)O)cc(=O)n2c1[nH]c1ccccc12 | 0.9% | -7.3% | x | 0.2% | x | x | -0.8% | x
C=CCNc1nc(N)c(C(=O)Nc2cc(C)on2)s1 | -1.0% | x | -14.2% | -8.8% | -2.4% | -2.4% | -6.0% | -0.5%
Cc1cc(N2CCOCC2)n2nc(C)c(-c3ccccc3Cl)c2n1 | 13.1% | 2.1% | x | -7.7% | x | x | -0.9% | x
O=C(/C=C/c1ccc(S(=O)(=O)N2CCOCC2)cc1)NC(=S)Nc1ccc(N2CCOCC2)cc1 | 12.3% | -26.5% | 26.6% | 20.0% | -4.3% | 0.6% | -7.4% | 20.2%
NC(=O)C1CCN(C(=O)c2ccc(NC(=O)c3nsc4ccccc34)cc2)CC1 | x | u | 2.6% | x | -0.8% | x | x | u
CCC(C)NC(=O)C(=O)NCc1ccccn1 (centres undefined) | -2.5% | -15.8% | x | 8.0% | x | 11.1%[46.1 µM] | -0.4% | 2.2%
COC(c1ccccc1)c1nnc(CCC(=O)N(C)C(C2CC2)C2CC2)o1 (centres undefined) | -4.2% | 1.3% | x | -3.1% | x | u | 0.8% | 5.2%
COc1ccc(CP(=O)(c2ccccc2)c2ccccc2)cc1 | -6.5% | -15.6% | x | -52.8% | x | -20.9% | -11.1% | 1.3%
CCCCN1C(=O)c2ccc(C(=O)NCc3ccco3)cc2C1=O | -6.1% | 19.6% | x | -5.0% | x | x | u | x
CN(C(=O)c1ccccc1Cl)c1ccccc1C(=O)NCCc1ccccc1 | -3.3% | 13.1% | x | 0.3% | x | -7.9% | -1.1% | 0.2%
Cc1ccc(-c2nn3c(C)nnc3s2)cc1NC(=O)c1cccnc1 | 1.8% | 13.3% | -14.6% | -1.4% | 3.1% | 1.3% | -3.4% | u
O=C(CSc1nc2ccccc2c(=O)[nH]1)c1ccc(O)cc1O | -1.0% | 13.9% | x | x | x | -21.3%[46.1 µM] | 0.1% | -14.1%[46.1 µM]
CN(C)c1ccc(/C(=N\O)c2ccccc2)cc1 | -14.1% | -8.5% | -21.4% | 8.3% | -3.6% | 2.8% | -13.1% | -22.9%
O=C(CNC(=O)c1ccc([N+](=O)[O-])cc1)c1ccccc1 | 3.0% | 58.1%[activator] | 11.2% | 8.2% | 2.9% | u | 0.9% | 1.3%
CC(C)(C)N(Cc1ccccc1)C(=O)COC(=O)C1=NN(c2ccccc2)C(=O)CC1 | -0.2% | -16.1% | x | x | x | 6.7% | -0.6% | 0.9%
CC1=CC(C)(C)Nc2ccc(OC(=O)CN3C(=O)c4cccc5cccc(c45)C3=O)cc21 | -19.2% | u | 25.1µM* | u | -7.6% | -20.4% | -7.1% | -3.2%
O=C(N/N=C/c1ccco1)c1ccc(C(=O)N/N=C/c2ccco2)o1 | 32.1% | 7.6% | x | 6.7% | x | 3.5% | 0.0% | 7.1%
CCCCNC(=S)NC(C)(C)CO | -21.0% | 7.8% | x | 2.6% | x | x | -2.5% | x
CCN(C(=O)CN1C(=O)S/C(=C\C=C\c2ccccc2)C1=O)C1CCS(=O)(=O)C1 (centres undefined) | -4.0% | -23.5% | x | 6.4% | x | x | -3.0% | x
COc1cc(C2C(C#N)=C(N)Oc3cc(C)oc(=O)c32)cc(OC)c1OC (centres undefined) | 5.4% | -3.3% | x | -1.7% | x | u | -0.8% | -13.4%[46.1 µM]
CN1CCN(NC(=O)c2cc([N+](=O)[O-])cc([N+](=O)[O-])c2)CC1 | 18.2% | -5.5% | -7.1% | 6.6% | -0.7% | 3.1% | 1.3% | 0.7%
CNC(=O)/C(=N\O)c1ccccc1 | x | x | -3.5% | -8.3% | 1.5% | -0.1% | 1.5% | x
Fc1ccccc1CCNc1c2c(nc3ncnn13)CCCC2 | 4.0% | -24.9% | x | 0.9% | x | 6.31µM* | 0.3% | -13.6%[46.1 µM]
COc1ccc(S(=O)(=O)NC2CCSc3ccccc32)cc1OC (centres undefined) | 0.5% | 13.7% | x | -13.2% | x | -32.3%[46.1 µM] | 2.7% | -9.4%[46.1 µM]
CC(=O)NC(CC(=O)OCC(=O)N1c2ccccc2NC(=O)C1(C)C)c1ccccc1 (centres undefined) | 0.1% | -6.6% | x | x | x | -11.1% | -0.6% | 5.1%
CC(=O)N/C(=N/c1nc(C)cc(C)n1)Nc1cccc(C)c1 | 2.9% | -13.4% | x | 3.6% | x | 13.7% | -1.3% | -3.3%
CC(C)[C@H](NC(=O)c1ccccc1)C(=O)OCC(=O)c1ccc2c(c1)NC(=O)CO2 | 21.2% | -22.5% | -3.9% | 11.0% | -5.5% | 2.5% | u | u
COc1ccccc1-c1cc(C(=O)Nc2cc(C)n(Cc3ccc(Cl)cc3)n2)no1 | 11.6% | u | u | 0.9% | -6.4% | u | 5.1% | u
CCOc1ccc(Cl)cc1C1CC(=O)Nc2cc(OC)c(OC)c(OC)c21 (centres undefined) | x | 2.6% | -7.4% | x | -0.9% | 19.6%[46.1 µM] | x | -1.7%[46.1 µM]
Cc1sc2nc(-c3ccccc3)[nH]c(=O)c2c1-c1ccccc1 | x | x | -0.5% | -3.0% | 6.9% | 8.7% | 13.9% | -0.8%
CC1(C)SC2C(NC(=O)COc3ccccc3)C(=O)N2C1C(=O)O (centres undefined) | 4.1%&-1.2% | -12.6%&-7.5%&-5.6% | -0.3% | 6.1% | -0.7% | x | 0.8% | x
CC1CN(C(=O)/C=C/c2cccc([N+](=O)[O-])c2)CC(C)O1 (centres undefined) | 0.0% | -7.5% | x | x | x | 18.2% | x | 3.5%
Cc1c(C(=O)Nc2ccc(C(C)C)cc2)sc2nc3n(c(=O)c12)CCC3 | x | u | 2.3% | x | -3.6% | x | x | 0.2%[46.1 µM]
CCC(=O)c1ccc(N2CCN(C(=O)c3ccccc3F)CC2)c(F)c1 | -16.2% | -10.1% | x | x | x | u | -1.4% | -2.0%
CC(=O)c1cc(CN2CCC(N3CCC(C(=O)NC(C)C)CC3)CC2)cs1 | 10.5% | -16.5% | x | 6.1% | x | x | 0.1% | x
Fc1ccccc1-n1ncc2c1ncn1nc(Cc3ccccc3)nc21 | x | 16.2% | -3.9% | x | -6.0% | u | x | 14.8%[46.1 µM]
Cc1cc(C)n(-c2ccc(Cl)c(C(=O)NCc3ccccc3)n2)n1 | -10.3% | -12.3% | x | 1.1% | x | -27.3%[46.1 µM] | 2.2% | x
COc1ccc(C2C(C(N)=O)=C(C)Nc3nc(SCc4ccccc4Cl)nn32)cc1OC (centres undefined) | x | -11.5% | -3.3% | x | -2.9% | -7.8%[46.1 µM] | x | -1.3%[46.1 µM]
O=C(/C=C/c1cccs1)Nc1cccc(NC(=O)/C=C/c2cccs2)n1 | 11.8% | -21.4% | -74.4% | 22.4% | -8.4% | u | -46.1% | u
Cc1cc(C(=O)CN2C(=O)NC(C)(CC(C)C)C2=O)c(C)n1-c1ccc2c(c1)OCO2 (centres undefined) | 37.0% | 0.0% | u | 4.6% | -6.7% | 3.1% | -33.4% | -22.0%

Shown with tabs: 3 of the compounds above.
Structure	RE007 growth inh	2A StopGo	Cruzain inh noDet	NS1 function inh	Cruzain inh Det	Marburg entry inh	SARS PLpro yeast	Lassa entry inh
Fc1ccccc1-n1ncc2c1ncn1nc(Cc3ccccc3)nc21	x	16.2%	-3.9%	x	-6.0%	u	x	14.8%[46.1 µM]
Cc1cc(C)n(-c2ccc(Cl)c(C(=O)NCc3ccccc3)n2)n1	-10.3%	-12.3%	x	1.1%	x	-27.3%[46.1 µM]	2.2%	x
COc1ccc(C2C(C(N)=O)=C(C)Nc3nc(SCc4ccccc4Cl)nn32)cc1OC (centres undefined)	x	-11.5%	-3.3%	x	-2.9%	-7.8%[46.1 µM]	x	-1.3%[46.1 µM]

Compound activity deposited in PubChem by National Center for Advancing Translational Sciences (NCATS).
